Sfp inh: inhibitors of Bacillus subtilis Sfp phosphopantetheinyl transferase | Q9F4F7 | Biochemical Sfp PPTase activity, qHTS | Potency, µM, for the others: max response, negative = inhibition, usual class: inhibitors | 310,000 compounds, 3.5% hits; active means well fitted inhibition curve with a large enough effect; inconclusive means small, poorly fitted or top-dose-only effect, or another doubt; inactive means no such curve, though single readings can be large or run the other way;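 further: the enzyme is Sfp with the accession as filed and its product quenches rhodamine fluorescence; potency means the concentration at half of the fitted maximal effect; 0% = enzyme reaction without inhibitor and -100% = no enzyme wells; top concentration of the series not given in the record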
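Step 1, compound plus 15 nM Sfp-PPTase, 15 min, room temperature. Step 2, add rhodamine-CoA (5 uM) and BHQ-2-YbbR (12.5 uM). Step 3, read 525/598 nm fluorescence at 0 and 30 min.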
TRPV1 PAM: enhances activation of the human vanilloid receptor TRPV1 | TRPV1-expressing cells, Fluo-8 calcium influx, capsaicin EC20 potentiation; host cell line not named in the record; control for the full effect not named in the record | Q8NER1 | 320,000 compounds, 0.02% hits | AID 540277 | potentiation, % at 8.33 µM; active means potentiation above 80%; inconclusive means 30% to 80%; inactive means below 30%; further: 0% is about no effect
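Cells expressing TRPV1 were dye-loaded with Fluo-8 and read kinetically: 10 s baseline, 3 min after compound (agonist portion), then 2 min after EC20 capsaicin (allosteric enhancer portion). Calcium-bound dye fluorescence at 480/520 nm.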
Six1-Eya2 inh: inhibitors of human Six1/Eya2 interaction; activity change, % (test concentration not listed); 360,000 compounds, 0.56% hits; AID 651725; AlphaScreen GST-Six1/His-Eya2 binding, biochemical; hits give low values; control for the full effect not named in the record; in the data active = activity change below about -65%; inconclusive = about -30% to -65%; inactive = above about -30%; further: on the % scale 0 is the no-effect control and ±100 the full control effect
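Homogeneous AlphaScreen proximity assay pairing GST-Six1 with His-tagged Eya2 (added as 5X mix: 250 nM and 500 nM) in 50 mM Tris pH 8.0, 300 mM NaCl, 1 mM TCEP. Glutathione donor and nickel acceptor beads; 1 h, 37 °C, dark.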
PINK1 expr mod: modulators of PINK1 expression | 410,000 compounds, 0.2% hits | PINK1 immunofluorescence, high-content cytometry, 24 h | Potency, µM (highest dose often 76.6 µM), for the others: at the top dose activation (PINK1 increase), most hits filed as activators | AID 624263; active = well fitted activation curve with a large enough effect; inconclusive = small, poorly fitted or top-dose-only effect; inactive = flat fitted curve, though single readings scatter; cell line not stated here;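 further: potency means the concentration at half of the fitted maximal effect; % of control where 0% means no effect; nearly all actives have a fitted effect of over 65% in size; a mitochondrial uncoupler was the plate control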
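PINK1 protein level read as immunofluorescence by microplate cytometer in a fixed, stained stable cell line after 24 h exposure to five compound concentrations, with CCCP as control.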
D2 PAM: positive allosteric modulators of human D2 dopamine receptor | 360,000 compounds, 0.23% hits | DiscoveRx D2 beta-arrestin cells, luminescence, 90 min; 100% = 57 uM dopamine signal | potentiation, % (concentration not given with the values) | P14416; active = potentiation of 50% or more; inconclusive = 30% to 50%; inactive = 30% or less;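 further: tested on top of an EC20 dose of dopamine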
Target sequence (P14416 whole entry, looked up): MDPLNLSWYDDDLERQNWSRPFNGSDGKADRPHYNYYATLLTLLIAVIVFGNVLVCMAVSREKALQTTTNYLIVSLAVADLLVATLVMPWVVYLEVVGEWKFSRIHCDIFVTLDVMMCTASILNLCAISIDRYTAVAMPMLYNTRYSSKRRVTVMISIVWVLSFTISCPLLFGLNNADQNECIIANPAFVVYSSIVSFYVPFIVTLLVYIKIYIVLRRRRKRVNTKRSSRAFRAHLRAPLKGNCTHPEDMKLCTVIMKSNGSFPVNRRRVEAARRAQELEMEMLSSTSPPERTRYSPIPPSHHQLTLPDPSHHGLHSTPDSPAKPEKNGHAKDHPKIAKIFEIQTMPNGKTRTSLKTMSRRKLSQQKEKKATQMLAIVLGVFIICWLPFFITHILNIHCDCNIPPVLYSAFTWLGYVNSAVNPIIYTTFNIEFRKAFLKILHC
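PathHunter D2 cells, attached overnight at 37 deg C, received compound in DMSO plus dopamine at EC20 (50 nM final) for 90 min at 37 deg C. Beta-arrestin recruitment was read as luminescence after 1 h with detection reagent at ambient temperature.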
CtBP-E1A inh: blocks the CtBP interaction with E1A | AlphaScreen GST-E1A/His-CtBP binding, 1536-well; hits give low values; control for the full effect not named in the record | activity change, % (no concentration beside the values) | 340,000 compounds, 0.49% hits | AID 651724; in the data active means activity change below about -65%; inconclusive means about -30% to -65%; inactive means above about -30%; further: on the % scale 0 is the no-effect control and ±100 the full control effect
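GST-E1A and His-tagged CtBP (125 nM each as 5X stock) were preincubated with pin-transferred compound for 2 h at 37 °C in the dark, then glutathione donor and nickel acceptor beads were added for 1 h before AlphaScreen reading.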
D2 agonist: human D2 receptor agonism in beta-arrestin assay; P14416; DiscoveRx PathHunter D2 beta-arrestin, luminescence, 90 min; 100% = 57 uM dopamine signal; activation, % (no concentration beside the values); 360,000 compounds, 0.084% hits; AID 624465; in the data active = activation above about 40%; inconclusive = about 15% to 40%; inactive = below about 15%; further: compound concentration not given in the record; the text of the record calls up to 30% inactive
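Agonist mode: compounds alone added to overnight-plated D2 PathHunter cells for 90 min at 37 C, with 57 uM final dopamine (EC100) defining full response. Beta-arrestin recruitment detected by chemiluminescent reagent, read after 1 h at ambient temperature.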
* = called active by the depositor; ? = inconclusive; . = no result given; & = joins results of further samples; [ ] = dose if it differs, or a comment. Not a hit list (roughly 3.7% active in at least one column).

No.	SMILES	Sfp inh	TRPV1 PAM	Six1-Eya2 inh	PINK1 expr mod
1	Cc1ccc2nc(N(CCCN(C)C)C(=O)c3cc(-c4cccs4)nc4ccccc34)sc2c1	79µM*	15	-24	-1.8%
2	COc1ccc(N2CC(NC(=O)Nc3ccccc3)CC2=O)cc1 (stereo unspecified)	9%	-15	5	1.8%
3	O=C(COc1ccccc1Cl)N1CCN(c2ncccn2)CC1	-4%	-6	23	-2.7%[38.3 µM]
4	O=C(Nc1ccccc1N1CCOCC1)c1ccncc1	.	17	2	0.1%
5	O=C(Nc1ccc(Cl)cc1F)c1ccc(COc2c(F)c(F)c(F)c(F)c2F)o1	-5%	28	5	1.9%
6	CSCCC(NC(=O)COc1ccccc1)C(=O)N1CCN(c2cccc(C(F)(F)F)c2)CC1 (stereo unspecified)	.	.	-25	6.2%
7	CN(C)S(=O)(=O)c1ccc(C(=O)Nc2ccccc2C(=O)NCCCN2CCOCC2)cc1	.	-8	-2	0.6%
8	NS(=O)(=O)c1ccc(NC(=O)COC(=O)CNC(=O)C23CC4CC(CC(C4)C2)C3)cc1	15%	-3	13	-0.4%
9	CC(=O)c1c(C)nc(C)nc1NC(=O)Cc1ccccc1	23%	2	7	-0.4%
10	O=C(NC(=S)Nc1nc2ccc(F)cc2s1)c1ccco1	56µM*	?	-2	2.1%
11	CCCn1c(N)c(C(=O)CN(C)CC(=O)Nc2ccc(C)cc2)c(=O)[nH]c1=O	.	22	-6	4.9%
12	CN1C(=O)S/C(=C/c2cccnc2)C1=O	9%	?	0	-1.0%[38.3 µM]

No.	D2 PAM	CtBP-E1A inh	D2 agonist
1	-22	?	-3.2
2	-8	2	-1.4
3	-14	41	-2.4
4	-4	.	-5.1
5	-15	23	-1.1
6	2	-11	3.5
7	-3	0	-2.9
8	-7	2	-1.2
9	9	-3	-2.9
10	-5	3	-0.9
11	-4	-7	-3.9
12	1	39	1.6

(further entries)
No.	SMILES	Sfp inh	TRPV1 PAM	Six1-Eya2 inh	PINK1 expr mod
13	Cc1cnc(C)c(N2CCN(Cc3nc(-c4ccc(C)o4)oc3C)CC2)n1	1%	21	0	1.7%
14	O=C1c2oc3ccc(Cl)cc3c(=O)c2C(c2ccccn2)N1CCCN1CCOCC1 (stereo unspecified)	25µM*	0	-6	-1.3%
15	COc1cc(CNC(C)c2ccccc2)cc(Cl)c1OCC(=O)Nc1ccccc1 (stereo unspecified)	56µM*	15	1	17%
16	CC(C)CCN(CC(=O)NCc1ccc(F)cc1)S(=O)(=O)c1ccccc1F	6%	-14	7	1.5%
17	O=C1CCCN1CCNC(=S)Nc1ccccc1	23%	0	3	.
18	COC(=O)Cn1cc(C(=O)c2ccco2)c2ccccc21	8%	1	-5	3.1%
19	CCOC(=O)N1CCN(c2ccncc2S(=O)(=O)N2CCCCC2)CC1	5%	8	1	-1.1%
20	Cc1oc(CSCCSCc2cc(C(=O)O)c(C)o2)cc1C(=O)O	-14%	-13	-1	4.2%
21	Cc1cc(N2CCOCC2)ccc1/C=C1\NC(=O)N(CC(=O)Nc2ccccc2C)C1=O	-12%	2	10	5.8%
22	CC(C)Cn1c(N2CCN(C(=O)c3cccs3)CC2)nc2ccccc21	1%	6	-4	-0.1%
23	CCn1c(SCc2ccc(C#N)cc2)nnc1-c1ccc(S(=O)(=O)N2CCCCC2)cc1	14%	-35	-4	-1.5%
24	CCNC(=O)C1CN(S(=O)(=O)c2ccccc2)CCN1S(=O)(=O)c1ccccc1 (stereo unspecified)	2%	18	-1	6.8%[38.3 µM]

No.	D2 PAM	CtBP-E1A inh	D2 agonist
13	-11	-10	-13
14	-4	-12	-3.9
15	-70	.	-7.1
16	6	15	-4.2
17	-6	-3	2.1
18	-4	7	-1.5
19	6	10	1.0
20	28	.	-1.7
21	-20	-8	-0.4
22	2	-9	-2.5
23	-3	6	1.1
24	-1	-5	-0.8

Copied from the list:
Value for cpd 15 under TRPV1 PAM: 15
Value for cpd 24 under CtBP-E1A inh: -5
Value for cpd 13 under TRPV1 PAM: 21
Value for cpd 16 under CtBP-E1A inh: 15

Further records:
No.	SMILES	Sfp inh	TRPV1 PAM	Six1-Eya2 inh	PINK1 expr mod
25	C[C@H]1CN([C@@H](C)CO)C(=O)c2cccc(NS(=O)(=O)c3cn(C)cn3)c2O[C@H]1CN(C)S(C)(=O)=O	.	.	19	-0.3%
26	COc1ccccc1NCCC(=O)OCC(=O)NC1CCCCCC1	5%	-13	-5	1.4%
27	COc1ccc(C2=NN(C(=O)c3ccco3)C(c3cc4ccccc4nc3Cl)C2)cc1 (stereo unspecified)	2%	1	-1	3.8%
28	Cc1ccc(C)c(CNc2ccc(S(=O)(=O)N3CCCCC3)cc2)c1	.	14	2	2.8%
29	CSc1nc2sc3c(c2c(=O)n1C)CCCC3	-7%	-3	5	.
30	O=c1[nH]c(SCCOc2cccc3ccccc23)nc2ccccc12	13%	21	0	12%
31	NC(=O)C1Cc2ccccc2CN1C(=O)c1nn(Cc2ccccc2)c(=O)c2ccccc12 (stereo unspecified)	.	4	-3	0.7%
32	CCN(C(=O)CSc1nc(C2CC2)n(-c2ccccc2)n1)C1CCS(=O)(=O)C1 (stereo unspecified)	.	3	-4	1.8%
33	COc1ccccc1CN1CCN(Cc2ccc3ccccc3c2)CC1	?	-8	-12	14%
34	Cn1c(=O)c2c(ncn2CC(=O)Nc2ccccc2)n(C)c1=O	16%	-2	2	2.8%
35	N=c1c2ccccc2nc2n1CCCCCCCCCCC2	.	.	8	8.1%
36	Cc1oc(CC(C)C)cc1C(=O)Nc1ccc(C(=O)O)cc1	?	30	1	6.4%[38.3 µM]

No.	D2 PAM	CtBP-E1A inh	D2 agonist
25	-18	26	-1.0
26	-9	-2	0.6
27	-16	.	-4.5
28	-1	.	5.3
29	-1	7	0.3
30	-5	.	-3.6
31	-1	.	-1.2
32	-24	-2	-5.1
33	-10	.	-8.1
34	-12	1	-2.7
35	-17	3	-5.0
36	2	5	1.4

New compounds follow:
No.	SMILES	Sfp inh	TRPV1 PAM	Six1-Eya2 inh	PINK1 expr mod
37	CCC(Oc1ccccc1F)C(=O)NCCCn1ccnc1 (stereo unspecified)	3%	5	6	-0.4%
38	Cc1cc(C)n(-c2nnc(NC34CC5CC(CC(C5)C3)C4)nn2)n1	3%	0	-19	5.3%
39	COc1ccc(C(=O)N2CCCC2)cc1S(=O)(=O)N1CCC(C)CC1	20%	-5	6	2.6%
40	O=C(CCc1ccccc1)NCC(=O)N/N=C/c1ccc(O)cc1O	11%	5	-66*	0.3%
41	CCCNC(=O)C1(C)CCCN(Cc2ccccc2F)C1 (stereo unspecified)	.	.	9	-0.7%
42	O=C(CSc1nncc2ccccc12)Nc1cccc(O)c1	-10%	-1	-24	0.5%
43	O=C(Nc1cccc(NC(=O)c2ccc(F)cc2)c1)c1ccc(F)cc1	12%	-12	0	1.2%
44	CCC(=O)NC(c1ccccc1)c1c(O)ccc2ccccc12 (stereo unspecified)	6%	1	-3	-1.0%
45	CN(C(=O)OC(C)(C)C)[C@H](Cc1ccccc1)C(=O)N[C@H]1CCCCNC1=O	.	.	4	-0.3%
46	CCC(c1nc2ccccc2[nH]1)N(Cc1cccnc1)C(=O)c1cc(-c2ccccc2)on1 (stereo unspecified)	.	.	-9	0.5%
47	CCN(CC)CCCNC(=O)c1cn(CC)c2cc(N3CCN(C(=O)c4ccco4)CC3)c(F)cc2c1=O	15%	11	-6	-0.6%
48	Cc1nc(-c2ccc(S(=O)(=O)N3CCCN(CCc4ccccc4)CC3)s2)cs1	-10%	-15	-28	-0.1%

No.	D2 PAM	CtBP-E1A inh	D2 agonist
37	-1	-1	-6.0
38	-3	-18	5.1
39	-27	17	-2.2
40	-23	.	-2.7
41	-7	6	2.3
42	-5	-10	-5.2
43	8	.	5.5
44	-13	1	-4.8
45	.	-2	0.6
46	-12	-9	-4.6
47	-10	-14	-4.3
48	-17	?	-11

3 compounds already listed, sorted by the value under CtBP-E1A inh, rising.
cpd | Compound | Sfp inh | Six1-Eya2 inh | PINK1 expr mod | D2 PAM | CtBP-E1A inh | D2 agonist
47 | CCN(CC)CCCNC(=O)c1cn(CC)c2cc(N3CCN(C(=O)c4ccco4)CC3)c(F)cc2c1=O | 15% | -6 | -0.6% | -10 | -14 | -4.3
42 | O=C(CSc1nncc2ccccc12)Nc1cccc(O)c1 | -10% | -24 | 0.5% | -5 | -10 | -5.2
39 | COc1ccc(C(=O)N2CCCC2)cc1S(=O)(=O)N1CCC(C)CC1 | 20% | 6 | 2.6% | -27 | 17 | -2.2

Further compounds follow:
No.	SMILES	Sfp inh	TRPV1 PAM	Six1-Eya2 inh	PINK1 expr mod
49	CN(C)S(=O)(=O)c1cccc(NC(=O)CSc2nc3c(cc2C#N)C(=O)CC(C)(C)C3)c1	-8%	-6	-5	9.7%
50	O=C(Nc1cccnc1Cl)c1ccc2c(Cl)c3c(nc2c1)CCC3	-11%	-15	-3	-1.3%
51	COc1ccc(-c2cc(NC(C)=O)c3ncc(-c4ccccc4)n3c2)c(OC)c1	.	.	-15	0.4%
52	O=C(/C=C/c1nc2ccccc2s1)N1CCCCCC1	10%	-7	-6	2.6%
53	Cc1ccc(C(=O)Nc2nc3ccc(S(C)(=O)=O)cc3s2)s1	9%	-8	2	-0.1%[38.3 µM]
54	C=CC[N+]1(CC=C)CCOCC1	3%	23	-1	-1.3%
55	CCCCC(=O)Oc1ccccc1C1SCc2cc(C)c(C)cc2CS1	?	13	-1	3.3%
56	CCOc1ccc(C2NC(=O)Cc3cc(OC)c(OC)cc32)cc1 (stereo unspecified)	17%	-4	9	-0.1%
57	CCCCC1=CC2=C(c3ccco3)C(=O)C(C)(OC(=O)c3ccc(OC)cc3)C(=O)C2=CN1CC1CC1 (stereo unspecified)	17%&-6%	22	-29	5.0%
58	O=C(Cn1nnc2ccccc21)c1ccc(Br)cc1	7%	-8	0	0.5%
59	CCNc1ccc(Br)cc(C(=O)/C=C/c2ccc(Cl)cc2)c1=O	40µM*	2	-11	12%

No.	D2 PAM	CtBP-E1A inh	D2 agonist
49	-19	7	1.3
50	-15	-23	-4.5
51	-7	-10	6.8
52	-4	-17	0.6
53	-12	-2	-0.1
54	-3	.	-4.3
55	-8	7	-3.6
56	-6	0	1.5
57	-11	?	1.5
58	-3	7	-0.1
59	8	2	0.1

Screening results: PubChem, National Center for Advancing Translational Sciences (NCATS)
